# AF4-AF9 inh: MLL-AF4/AF9 protein interaction inhibition. AID 651704. inhibition, % at 10 µM. AlphaScreen, biotin-AF4 peptide binding to FLAG-AF9. P42568. hit rate 0.47% among 350,000;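 active = every replicate reaching a set inhibition limit, whatever the replicate mean, cut at about 25% in these data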;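 also: 0% = plate neutral control median and 100% = total signal loss; the record names both 10 and 1 µM as test concentration; the first replicate is given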
# Target sequence (P42568 whole entry, looked up): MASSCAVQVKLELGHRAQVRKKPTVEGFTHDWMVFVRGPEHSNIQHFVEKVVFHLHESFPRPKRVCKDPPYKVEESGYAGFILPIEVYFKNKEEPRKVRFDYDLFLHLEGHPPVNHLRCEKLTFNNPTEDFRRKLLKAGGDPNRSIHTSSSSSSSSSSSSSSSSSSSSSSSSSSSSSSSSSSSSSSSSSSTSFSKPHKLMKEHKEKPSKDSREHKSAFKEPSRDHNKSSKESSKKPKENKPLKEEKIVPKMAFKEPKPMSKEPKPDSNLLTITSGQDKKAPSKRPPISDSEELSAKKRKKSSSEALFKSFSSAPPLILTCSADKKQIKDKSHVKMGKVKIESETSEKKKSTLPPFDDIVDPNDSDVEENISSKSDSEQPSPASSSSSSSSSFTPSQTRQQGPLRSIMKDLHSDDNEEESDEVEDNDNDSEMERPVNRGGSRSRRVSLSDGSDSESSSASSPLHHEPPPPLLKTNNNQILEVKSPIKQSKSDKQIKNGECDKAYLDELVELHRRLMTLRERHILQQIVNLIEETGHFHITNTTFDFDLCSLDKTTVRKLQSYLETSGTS
# Ecoli rRNA inh: inhibits bacterial ribosomal RNA function over humanized ribosomes; E. coli WT GFP vs humanized-ribosome RFP mutants, fluorescence, 24 h; hits give low values; DMSO median 0, no signal -100; hit rate 1.6% among 350,000; GFP signal change (wild-type ribosome), % (concentration not given with the values);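 active = significant combined selectivity score with lowered wild-type GFP, culture density cut under 30%, mutant RFP and density less affected; inactive = any of these conditions unmet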; also: one replicate is shown; some compounds called inactive have numbers as strong as hits
# Ecoli rRNA inh OD600: recorded beside Ecoli rRNA inh, whose call it bears; OD600 change, %; measured here: OD600 growth;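 optical density of the mix in the first replicate; 0 = DMSO median and -100 = no signal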
# Ecoli rRNA inh RFP: recorded beside Ecoli rRNA inh, whose call it bears; RFP signal change, %; measured here: RFP humanized mutant strains;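 first replicate; 0 = DMSO median and -100 = no signal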
# An asterisk follows results filed as active. These rows are one share of the data; the hit share may differ from the screen's.
Ecoli rRNA inh OD600	compound	AF4-AF9 inh	Ecoli rRNA inh	Ecoli rRNA inh RFP
-2	COc1ccc(S(=O)(=O)N2C[C@@H](O)COC[C@@H]3O[C@@H](CC(=O)N[C@@H]4CCN(Cc5ccccc5)C4)CC[C@H]32)cc1	1.4	-2	-1.5
2	CCC(=O)Nc1ccc2c(c1)C(=O)N(C)C[C@@H](OC)[C@H](C)CN(Cc1cccnc1)[C@@H](C)CO2	0.7	1	-2.1
-6	C[C@@H]1CN([C@@H](C)CO)C(=O)Cc2cc(NC(=O)Cc3ccccc3)ccc2O[C@H]1CN(C)Cc1ccccc1	3.3	-2	4.7
8	O=C(C[C@@H]1CC[C@@H](NC(=O)c2ccc(F)cc2)[C@H](CO)O1)NCCc1ccncc1	1.4	1	-0.3
0	Cc1noc(C)c1NC(=O)N(C)C[C@@H]1Oc2c(NC(=O)c3cnccn3)cccc2C(=O)N([C@@H](C)CO)C[C@@H]1C	-2.0	3	-0.8
3	O=C(C[C@H]1C[C@H]2c3cc(NC(=O)C4CCOCC4)ccc3O[C@H]2[C@@H](CO)O1)NCCc1ccccc1	-1.3	1	-2.9
14	CCCCNC(=O)C1(C)CCCCN1C(=O)c1ccc2sccc2c1 (configuration not stated)	-2.8	6	1.6
2	CCNC(=O)[C@@H]1[C@@H](CO)[C@@H]2Cn3c(ccc(C4=CCCCC4)c3=O)[C@@H]2N1CC1CC1	-1.8	-1	1.2
-10	COc1cccc(C#Cc2ccc([C@@H]3[C@@H](C#N)N(C(=O)C4CCCC4)[C@@H]3CO)cc2)c1	-6.2	2	23
1	COC(=O)C[C@H](NC(=O)Cn1cnc(C(=O)Nc2ccc(C)c(C)c2)n1)C(=O)OC	-0.5	0	-4.6
-20*	O=C(Nc1c(-c2ccccc2)[nH][nH]c1=O)c1ccc(-c2ccccc2)cc1	-2.0	-14*	-2.5*
-3	CO[C@H]1CN(C)C(=O)c2ccc(NC(=O)C3CCC3)cc2OC[C@@H](C)N(Cc2ccncc2)C[C@@H]1C	0.8	-2	0.0
5	O=C(NCC1CC1)[C@@H]1[C@@H](CO)[C@@H]2Cn3c(ccc(-c4cccnc4)c3=O)[C@H]1N2C(=O)C1CC1	-0.7	1	1.2
7	c1ccc(CCNc2cc(-c3ccc4ccccc4c3)nc3ccnn23)nc1	0.1	-7	6.7
-4	C[C@H]1CN([C@@H](C)CO)C(=O)c2cc(NC(=O)Cc3cn(C)c4ccccc34)ccc2O[C@@H]1CN(C)C(=O)Nc1ccccc1	1.1	-2	-4.5
5	CC=Cc1ccc2n(c1=O)C[C@H]1[C@H](CO)[C@@H](C(=O)N(C)C)[C@@H]2N1C(=O)c1ccc(F)cc1 (mixture of isomers)	-1.7	0	-2.7

# An excerpt from above in order of heavy-atom count, largest number first.
Ecoli rRNA inh OD600	compound	AF4-AF9 inh	Ecoli rRNA inh	Ecoli rRNA inh RFP
-3	CO[C@H]1CN(C)C(=O)c2ccc(NC(=O)C3CCC3)cc2OC[C@@H](C)N(Cc2ccncc2)C[C@@H]1C	0.8	-2	0.0
5	O=C(NCC1CC1)[C@@H]1[C@@H](CO)[C@@H]2Cn3c(ccc(-c4cccnc4)c3=O)[C@H]1N2C(=O)C1CC1	-0.7	1	1.2
5	CC=Cc1ccc2n(c1=O)C[C@H]1[C@H](CO)[C@@H](C(=O)N(C)C)[C@@H]2N1C(=O)c1ccc(F)cc1 (mixture of isomers)	-1.7	0	-2.7
-10	COc1cccc(C#Cc2ccc([C@@H]3[C@@H](C#N)N(C(=O)C4CCCC4)[C@@H]3CO)cc2)c1	-6.2	2	23
2	CCNC(=O)[C@@H]1[C@@H](CO)[C@@H]2Cn3c(ccc(C4=CCCCC4)c3=O)[C@@H]2N1CC1CC1	-1.8	-1	1.2
-20*	O=C(Nc1c(-c2ccccc2)[nH][nH]c1=O)c1ccc(-c2ccccc2)cc1	-2.0	-14*	-2.5*
14	CCCCNC(=O)C1(C)CCCCN1C(=O)c1ccc2sccc2c1 (configuration not stated)	-2.8	6	1.6

# Remaining list, next part
Ecoli rRNA inh OD600	compound	AF4-AF9 inh	Ecoli rRNA inh	Ecoli rRNA inh RFP
3	CCCN(C)C[C@H]1Oc2ncc(C#CCN(C)C)cc2C(=O)N([C@@H](C)CO)C[C@@H]1C	8.5	8	-2.8
-33	CN(C)C(=O)C[C@@H]1C[C@H]2c3cc(NC(=O)Nc4ccc(C(F)(F)F)cc4)ccc3O[C@H]2[C@H](CO)O1	-16	-8	23
-3	COc1cccc(S(=O)(=O)N[C@H]2CC[C@H](CCn3cc(-c4ccccn4)nn3)O[C@H]2CO)c1	-1.6	-3	-2.3
3	CCC(=O)N(C)C[C@@H]1Oc2cc(C#C[C@@H](C)O)ccc2S(=O)(=O)N([C@@H](C)CO)C[C@@H]1C	-3.2	-1	-1.6
-1	O=C(NCc1ccccc1)[C@@H]1[C@@H](CO)[C@@H]2Cn3c(cccc3=O)[C@H]1N2CC1CCCC1	-1.4	-7	-2.7
3	COc1ccc(C2CC(c3cccc([N+](=O)[O-])c3)=NN2/C(C)=C/C(C)=O)cc1 (configuration not stated)	-3.7	-4	-3.0
2	C[C@H](CO)N1C[C@H](C)[C@H](CN(C)Cc2ccc(C(=O)O)cc2)Oc2ccc(NS(C)(=O)=O)cc2CC1=O	-2.9	0	-0.3
-4	C[C@@H]1CN([C@H](C)CO)C(=O)Cc2cc(NS(=O)(=O)c3ccccc3)ccc2O[C@H]1CN(C)S(=O)(=O)c1cccs1	-0.3	-1	-1.8
0	CS(=O)(=O)N1[C@H](C(=O)NCC2CC2)[C@@H](CO)[C@@H]2Cn3c(ccc(-c4ccccc4F)c3=O)[C@@H]21	3.9	-3	-2.1
11	Cc1noc(C)c1NC(=O)N(C)C[C@H]1OCCCC[C@H](C)Oc2ccc(NC(=O)NC3CCCCC3)cc2C(=O)N([C@H](C)CO)C[C@@H]1C	-9.5	3	0.2
-5	O=C(Nc1ccc2c(c1)[C@@H]1C[C@H](CC(=O)N3CCOCC3)O[C@H](CO)[C@@H]1O2)NC1CCCC1	-1.2	1	-2.0
-5	Cc1ccc(S(=O)(=O)N[C@H]2CC[C@@H](CCNC(=O)C3CC3)O[C@H]2CO)cc1	0.1	-3	0.7
-6	C[C@H](CO)N1C[C@H](C)[C@H](CN(C)S(=O)(=O)c2ccccc2)Oc2c(NS(=O)(=O)c3ccc(Cl)cc3)cccc2C1=O	1.9	-1	2.0
0	O=C(C[C@@H]1CC[C@H]2[C@@H](COC[C@@H](O)CN2S(=O)(=O)c2ccccc2)O1)N1CCOCC1	-11	-1	-4.2
17	Nc1ccn([C@@H]2O[C@H](C(=O)NCCc3ccc(F)cc3)[C@@H](O)[C@H]2O)c(=O)n1	-1.8	21	1.6
9	Cc1ccc(S(=O)(=O)N(C)C[C@@H]2OCCCC[C@H](C)Oc3ccc(NC(=O)CCCCCC(=O)Nc4ccccc4N)cc3C(=O)N([C@H](C)CO)C[C@@H]2C)cc1	-1.6	-2	-0.3
8	COCCNC(=O)C1C(=O)Nc2ccccc2C(=O)N1Cc1ccccc1 (configuration not stated)	-3.8	32	-0.9
0	COCC(=O)Nc1ccc2c(c1)C(=O)N(C)C[C@H](OC)[C@@H](C)CN(C(=O)NC(C)C)[C@@H](C)CO2	-2.5	-2	-1.6
-2	C[C@@H]1CCCCO[C@@H](CN(C)C(=O)Nc2cccc3ccccc23)[C@H](C)CN([C@@H](C)CO)C(=O)c2cc(NS(=O)(=O)c3cccs3)ccc2O1	2.8	2	3.1
-12	COc1cccc(S(=O)(=O)Nc2ccc3c(c2)[C@H]2C[C@@H](CC(=O)N[C@@H](C)c4ccccc4)O[C@H](CO)[C@H]2O3)c1	-0.3	-10	7.4
-42	Cc1ccc(S(=O)(=O)Nc2ccc3c(c2)CC(=O)N([C@@H](C)CO)C[C@@H](C)[C@@H](CN(C)CC2CCCCC2)O3)cc1	3.3	5	32
3	CCCN1[C@@H]2c3ccc(C4=CCCCC4)c(=O)n3C[C@@H]2[C@@H](CO)[C@@H]1C(=O)OC	0.0	3	-1.8
12	Cc1nc2ccccn2c(=O)c1NC(=O)COc1ccccc1	-0.2	15	-2.7
-20	CC(=O)c1ccc(-c2cnc3c(NC=O)cc(-c4ccccc4Oc4ccccc4)cn23)cc1	3.2	-11	6.0
10	C[C@@H]1CN([C@H](C)CO)C(=O)Cc2cc(NC(=O)Nc3cccc4ccccc34)ccc2O[C@H]1CN(C)Cc1ccc(Cl)c(Cl)c1	-2.4	2	-1.0
13	COc1ccc(NC(=O)Nc2cccc3c2O[C@@H](CN(C)S(=O)(=O)c2cn(C)cn2)[C@@H](C)CN([C@@H](C)CO)C3=O)cc1	-2.8	4	-1.4
3	O=[N+]([O-])c1ccc2c(c1)C(N1CCN(CCO)CC1)Cc1ccc(F)cc1S2 (configuration not stated)	16	-2	0.4
-13	CCCNC(=O)[C@@H]1[C@@H](CO)[C@@H]2Cn3c(ccc(C4=CCCC4)c3=O)[C@@H]2N1Cc1ccccc1	2.5	-4	4.5
-17	C[C@@H]1CN([C@H](C)CO)C(=O)c2cc(/C=C/c3ccccc3)cnc2O[C@H]1CN(C)C(=O)C1CCC1	5.8	-7	7.4
0	COc1cccc(C(O)c2ncc(-c3ccccc3OC)[nH]2)c1 (configuration not stated)	4.5	4	-0.9
-39	CC(C)CC#Cc1ccc2c(c1)O[C@H](CN(C)C(=O)C1CCC1)[C@@H](C)CN([C@@H](C)CO)S2(=O)=O	6.4	-14	22
4	C[C@@H]1CN([C@H](C)CO)C(=O)c2ccccc2-c2ccccc2CO[C@@H]1CN(C)S(=O)(=O)c1ccccc1	-3.2	2	-3.1
14	COCCCNC(=O)c1ccc2sc([C@@H]3O[C@H](CO)[C@H](O)[C@H](O)[C@H]3O)nc2c1	-3.2	5	-2.3
-2	C[C@@H]1CN([C@H](C)CO)C(=O)c2cc(C#Cc3ccccc3)cnc2O[C@@H]1CN(C)S(=O)(=O)c1ccccc1F	-7.2	-5	5.1
1	C[C@@H]1CCCCO[C@@H](CN(C)CC2CC2)[C@@H](C)CN([C@H](C)CO)C(=O)c2cc(NC(=O)Nc3ccc4c(c3)OCO4)ccc2O1	19	6	-3.7
-7	COc1cccc(S(=O)(=O)Nc2ccc3c(c2)C(=O)N(C)C[C@H](OC)[C@@H](C)CN[C@@H](C)CO3)c1	-4.1	-2	0.1
7	CCCNC(=O)Nc1ccc2c(c1)OC[C@@H](C)N(CCC)C[C@H](C)[C@H](OC)CN(C)C2=O	-2.4	2	0.4
12	CN1C(=O)c2cc(NS(C)(=O)=O)ccc2OC[C@@H]2O[C@@H](CC(=O)NC3CCCCC3)CC[C@H]21	-3.3	0	0.6
13	C[C@@H](CO)NC(=O)[C@H]1O[C@@H](n2ccc(=O)[nH]c2=O)[C@H](O)[C@@H]1O	-0.5	8	3.5
-80	C[C@@H]1CN([C@@H](C)CO)C(=O)c2cc(NC(=O)C3CC3)ccc2O[C@@H]1CN(C)C(=O)Nc1ccc(C(F)(F)F)cc1	0.4	-60	-18
5	CC(C)C#Cc1cnc2c(c1)C(=O)N([C@@H](C)CO)C[C@@H](C)[C@H](CN(C)C(=O)Nc1cccc(F)c1)O2	-0.8	3	1.7
-13	CC(O)C(NS(=O)(=O)c1ccc(Cl)cc1)C(=O)OCC(=O)c1ccc2c(c1)NC(=O)CO2 (configuration not stated)	1.0	-8	2.4
-8	C[C@H]1CN([C@@H](C)CO)C(=O)c2cccc(NS(=O)(=O)c3ccc(F)cc3)c2O[C@H]1CN(C)S(=O)(=O)c1ccc(F)cc1	2.2	-7	5.4
-19	O=C(C[C@@H]1C/C=C\CC[C@@H](Cc2ccc(F)cc2)C(=O)OC[C@@H]2CCCN2C1=O)N[C@H](CO)Cc1ccccc1	0.6	-13	-3.5
-2	C[C@H]1CN([C@@H](C)CO)C(=O)Cc2cc(NS(C)(=O)=O)ccc2O[C@H]1CN(C)CC1CCCCC1	-2.6	2	0.8
-1	C[C@H](CO)N1C[C@H](C)[C@H](CN(C)C(=O)Nc2ccccc2F)Oc2cc(-c3ccc(F)cc3)ccc2S1(=O)=O	-2.0	-4	10
-8	COc1ccc2c3c(n(C)c2c1)[C@H](CO)N(C(=O)C1CCC1)CC31CCN(CC2CCCC2)CC1	2.7	-2	-1.0
-13	C[C@@H]1CN([C@@H](C)CO)C(=O)c2cc(NS(=O)(=O)c3cccs3)ccc2O[C@@H]1CN(C)S(=O)(=O)c1ccc(Cl)cc1	-0.6	-5	2.5
10	COC(=O)[C@]12CCCCC=C1N(Cc1cccc3ccccc13)C(=O)[C@H](CC(=O)NCC1CCCCC1)C2	2.2	7	-3.9
-4	COc1cccc(-c2cn(CC[C@H]3CC[C@H](NC(C)=O)[C@H](CO)O3)nn2)c1	0.1	0	-1.7
-1	NC(=O)C1CC(=O)N(c2ccc(OCC(=O)N3CCCC3)cc2)C1 (configuration not stated)	2.3	4	-2.8
-28	N#C[C@@H]1[C@H](c2ccc(-c3ccccc3F)cc2)[C@H](CO)N1C(=O)C1CCC1	-4.5	0	2.6
-70	C[C@H](NC(=O)C[C@H]1CC[C@@H]2[C@H](COC[C@@H](O)CN2C(=O)Nc2cccc(Cl)c2)O1)c1ccccc1	1.4	-57	-18
3	O=C(N[C@H]1CC[C@H](CCn2cc(C3(O)CCCC3)nn2)O[C@@H]1CO)C1CCC1	-1.8	2	-1.5
6	C[C@H](CO)N1C[C@H](C)[C@H](CN(C)C(=O)Nc2cccc3ccccc23)Oc2c(NS(=O)(=O)c3cn(C)cn3)cccc2C1=O	-1.4	3	0.8

# Assay outcomes deposited in PubChem by Broad Institute.
